Bioassay records (PubChem)
Mtb growth – Confirmatory growth inhibition assay against Mycobacterium tuberculosis H37Rv, potency (AID 1949) | one-dose inhibition, % at 10 µg/mL; IC50 in µg/mL for titrated hits | most inactive calls were filed without a number and no value below 0 was filed | 1.6% of 100,000 active;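 active means confirmed in a dose series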;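 further: bacteria grown 7 days with compound before Alamar blue readout; 0% = untreated bacteria and 100% = reference antibiotic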
Active calls of the source: *; i = inactive. The list is partial. The share of hits here may be higher or lower than overall.

The opening five compounds (preview)
SMILES	Mtb growth
CC(C)CC(=O)Nc1cc2nn(-c3ccccc3)nc2cc1Cl	i
CCOC(=O)c1ccc(COC(=O)CNS(=O)(=O)c2ccccc2)cc1	i
COc1ccccc1NC(=S)NCCCn1ccnc1	i
Cc1noc(C)c1C(=O)Nc1ccccc1-c1ccccc1	i
Cc1c(NC(=O)c2cccc(S(=O)(=O)N3CCCC3)c2)c(=O)n(-c2ccccc2)n1C	2%

This part in full (from the top)
SMILES	Mtb growth
CC(C)CC(=O)Nc1cc2nn(-c3ccccc3)nc2cc1Cl	i
CCOC(=O)c1ccc(COC(=O)CNS(=O)(=O)c2ccccc2)cc1	i
COc1ccccc1NC(=S)NCCCn1ccnc1	i
Cc1noc(C)c1C(=O)Nc1ccccc1-c1ccccc1	i
Cc1c(NC(=O)c2cccc(S(=O)(=O)N3CCCC3)c2)c(=O)n(-c2ccccc2)n1C	2%
CC1CCCC(N2CCN(Cc3ccc4c(c3)OCO4)CC2)C1 (stereo not drawn)	i
Cc1ccc(C(=O)COc2cccc(C)c2C)cc1C	i
CCc1ccccc1NC(=O)CN(c1cccc(Cl)c1)S(C)(=O)=O	i
CN1c2ccccc2Sc2cc(N)ccc21	i
O=c1[nH]c(Nc2nc3ccccc3s2)nc2ccccc12	i
O=C(Nc1cccc2ccccc12)NC1CCCC1	i
O=C(CNc1n[nH]c(=O)[nH]c1=O)N/N=C/c1ccccc1F	i
COc1ccc(S(=O)(=O)Oc2c(OC)cc(C(=S)N3CCOCC3)cc2OC)cc1	3%
Cc1cc(C)c(C2C(C#N)=C(N)OC3=C2C(=O)CC(C)(C)C3)c(C)c1 (stereo not drawn)	i
COc1ccc(/C(N)=N/OC(=O)Cc2ccccc2)cc1	5%
Cc1cc2ncn(C3CC(=O)N(c4cccc(Cl)c4)C3=O)c2cc1C (stereo not drawn)	i
COC(=O)c1ccc(C(=O)OC)c(NC(=O)CN(c2cc(C)ccc2OC)S(=O)(=O)c2ccccc2)c1	i
COc1cc(CNC2C3CC4CC(C3)CC2C4)ccc1OCc1cccs1 (stereo not drawn)	i
O=C1NC(Nc2ccc(F)cc2)(C(F)(F)F)C(=O)N1c1ccc(F)cc1 (stereo not drawn)	i
Nc1nc(CCc2ccccc2)cc2c1c(=O)oc1ccccc12	4%
C=CCn1c(SCC(=O)Nc2ccccc2OC)nc(O)c(CC)c1=O	i
CCOc1ccc(C(=O)Nc2cccc(NC(=O)C(C)C)c2)cc1Br	i
Cn1c2c(c(=O)n(C)c1=O)C(c1ccccc1Br)C1=C(N2)c2ccccc2C1=O (stereo not drawn)	3%
O=C(NCc1ccccc1)c1ccc(-c2ccccc2Cl)o1	3%
COc1cc(-c2nc(-c3ccccn3)no2)cc(OC)c1OC	i
O=C(COc1ccc2c3c(c(=O)oc2c1)CCCC3)c1cccc([N+](=O)[O-])c1	3%
OCCC1CN(C(=S)Nc2ccccc2)CCN1Cc1ccc(F)cc1 (stereo not drawn)	0%
Cc1cccc(OCC(=O)NC(=S)Nc2cccc(C(=O)O)c2C)c1	i
Cc1cc(C(F)F)n2nc(C(=O)Nc3ccc(S(=O)(=O)NC45CC6CC(CC(C6)C4)C5)cc3)nc2n1	3%
O=c1cc(CSc2nc3ccccc3[nH]2)c2ccccc2[nH]1	3%
Cc1ccc(NCCC(=O)c2ccc([N+](=O)[O-])cc2)cc1Cl	20µg/mL*
CS(=O)(=O)N1CCCC(C(=O)NCCC2=CCCCC2)C1 (stereo not drawn)	i
O=S1(=O)C=CC2ON=C(c3ccc(C(F)(F)F)cc3)C21 (stereo not drawn)	3.1µg/mL*
COc1cccc(C2CC(c3cccs3)=NN2S(C)(=O)=O)c1OC (stereo not drawn)	i
CN=C(NC)c1ccc([N+](=O)[O-])cc1	i
COc1cc(C(=O)NC(=S)Nc2cc(Cl)c(Cl)cc2Cl)cc(OC)c1OC	i
O=C(Nc1ccncc1)c1ccccc1Oc1ccccc1	2%
O=C(O)C1CCCN(S(=O)(=O)c2ccc(Br)cc2)C1 (stereo not drawn)	i
Cc1cccc(N2C(=O)N(c3cccc(Cl)c3)C3CS(=O)(=O)CC32)c1 (stereo not drawn)	i
COc1ccccc1NC(=O)COc1cc(C)ccc1C(C)C	i
O=C(Nc1ccc(F)cc1F)C(=O)N1CCCCC1	i
O=S(=O)(Oc1ccc(Cl)cc1C(=S)N1CCOCC1)c1ccc(Br)cc1	i
CCCCOc1cccc(C(=O)Nc2cc(-c3nc4ncccc4o3)ccc2Cl)c1	i
C=CCc1cc(Cl)ccc1OCCN1CCCC1	i
Cc1cc(C)cc(NC(=S)N2CCC(C(N)=O)(N3CCCCC3)CC2)c1	i
N#CC1(S(=O)(=O)c2ccccc2)CCCCC1	1%
Cc1ccc(SCC(=O)n2cnnc2N)cc1	i
COc1cc(CNCCO)c(Cl)cc1OCc1ccccc1	i
Cc1ccc(Cl)cc1N1CCN(C(=O)c2ccc(CN3CCOCC3)cc2)CC1	i
COc1cc(/C=C(/C#N)c2ccccc2F)cc(I)c1OC	3%
O=S(=O)(Nc1ccc(O)c(Sc2nc3ccccc3s2)c1)c1cccc2cccnc12	i
COc1cccc2cc(-c3nnc(Nc4cccc(Cl)c4)s3)c(=O)oc12	i
O=C(CCS(=O)(=O)Cc1ccccc1)Nc1ccccc1Sc1ccccc1	i
CCOC(=O)c1ccccc1NC(=O)CN(c1cc(C)ccc1C)S(C)(=O)=O	i
COc1ccc(S(=O)(=O)N2CCN(Cc3ccc4c(c3)OCO4)CC2)cc1Br	i
CNC(=S)N1CCN(c2ccc(F)cc2)CC1	i
COc1ccc(NC(=S)Nc2ccc(I)cc2)c(OC)c1	i
CC(=O)N/C(=N\OCc1ccccc1Cl)c1nonc1NC(C)=O	i
CNC(=O)Nc1ccccc1C(=O)Nc1ccc(C)cc1	i
CN(c1ccccc1C(=O)N1CCc2ccccc2C1)S(C)(=O)=O	i

Five entries from above, as comma-separated lines:
Molecule,Mtb growth
Cc1ccc(NCCC(=O)c2ccc([N+](=O)[O-])cc2)cc1Cl,20µg/mL*
CN(c1ccccc1C(=O)N1CCc2ccccc2C1)S(C)(=O)=O,i
O=C(Nc1cccc2ccccc12)NC1CCCC1,i
Nc1nc(CCc2ccccc2)cc2c1c(=O)oc1ccccc12,4%
COc1cc(CNCCO)c(Cl)cc1OCc1ccccc1,i

(cont.)
SMILES	Mtb growth
O=C(Cc1ccccc1)Nc1ccc(N2CCN(Cc3ccccc3F)CC2)cc1	i
CC1CN(CCOc2ccccc2)CC(C)O1 (stereo not drawn)	i
S=c1[nH]nc(CCc2ccccc2)n1-c1ccccc1	i
CCCCNC(=O)C(C)(C)Oc1ccc(Cl)cc1	i
CCOc1ccccc1N1CCN(C(=S)Nc2ccc(Br)cc2Cl)CC1	i
COc1ccc(-c2ccc(S(=O)(=O)Nc3cccc(OC)c3)cc2)cc1	i
CCOc1ccc(N(CC(=O)O)S(=O)(=O)c2ccc(OC)c(OC)c2)cc1	i
COc1ccc(C(=O)n2nnc3ccccc32)cc1Br	i
COc1ccc(CCC(=O)Nc2sc(C)c(C)c2C(=O)OC(C)C)cc1	4%
Cn1nccc1C#CCN1CCOCC1	1%
Cc1cc(NC(=S)NC(=O)CC(C)C)ccc1Br	i
CC(C)c1ccccc1NC(=O)CSc1nc(-c2ccccc2)cc(=O)[nH]1	i
COC(=O)c1ccc(CSc2nc3sc4c(c3c(=O)[nH]2)CCCC4)o1	i
Cc1ccc(S(=O)(=O)N(CC(=O)N2CCc3ccccc3C2)c2cccc(C)c2C)cc1	i
COc1ccc(C2CC(C(F)(F)F)n3nc(C(=O)Nc4c(C)n(C)n(-c5ccccc5)c4=O)c(Cl)c3N2)cc1 (stereo not drawn)	i
Cc1cc(C(C)(C)C)cc(S(=O)(=O)N2CCOCC2)c1C	i
COC(=O)c1ccc(NC(=O)C(C)Oc2cccc(C)c2C)cc1 (stereo not drawn)	i
Cc1cc(OCC(=O)Nc2ccc(S(=O)(=O)Nc3nccs3)cc2)ccc1Br	i
COc1ccc(C(=O)N2CCN(c3ccc([N+](=O)[O-])c(N4CCCC4)c3)CC2)cc1	i
O=C(Nc1cc(C(F)(F)F)ccc1Cl)C1CCN(c2ccc(C(F)(F)F)cc2[N+](=O)[O-])CC1	i
CC(C)CC(=O)Nc1ccc(NC(=O)CC(C)C)c(Cl)c1	i
COc1ccccc1CNC(=O)c1cnn2c(C(F)F)cc(C)nc12	i
O=C(Nc1ccc(N2CCOCC2)cc1N1CCOCC1)c1cccs1	i
O=S(=O)(Nc1c(F)cccc1F)c1ccc2c(c1)OCCO2	i
Cc1ccc(S(=O)(=O)Nc2c(C)cc(C)cc2Cl)cc1	3%
O=S(=O)(Nc1cccc(C(F)(F)F)c1)c1c(F)cccc1F	i
O=C(Oc1ccc(Cl)c2cccnc12)c1cccs1	0.37µg/mL*
O=C(Nc1ccccc1[N+](=O)[O-])C1CC1c1ccccc1 (stereo not drawn)	i
CCOC(=O)c1c(-c2ccc(F)cc2)csc1NC(=O)CSc1nnc2ccccn12	i
COc1ccc(N(CC(=O)Nc2cccc(N(C)S(C)(=O)=O)c2)S(=O)(=O)c2ccc(C)cc2)cc1	i
CN(C)c1ccc(CNCCC(c2ccccc2)c2ccc3c(c2)OCO3)cc1 (stereo not drawn)	i
O=C(NCCCNc1ccc(C(F)(F)F)cc1[N+](=O)[O-])c1cccc(Br)c1	i
CCOc1ccccc1NC(=S)Nc1ccc(S(N)(=O)=O)cc1	i
Cc1cc(OCC(=O)NCCCNC(=O)COc2ccc(Cl)c(C)c2)ccc1Cl	i
Cc1ccc(S(=O)(=O)Nc2nc3cc(C)c(C)cc3s2)cc1	i
COc1ccccc1-c1cc(-c2ccccc2)nc(SCC(=O)O)c1C#N	i
COc1ccccc1C(=O)NC(=S)Nc1cc(Cl)cc(Cl)c1	i
COc1cccc(OC)c1OCCCSc1nc(C)cc(=O)[nH]1	i
COc1ccc(NS(=O)(=O)c2cc(C(=O)Nc3ccccc3)c(Cl)cc2Cl)cc1	i
CCCC(=O)NC(=S)Nc1nc(-c2ccc(OC)cc2)cs1	i
COc1ccccc1NCc1nc2ccccc2n1Cc1ccccc1	2%
O=S(=O)(c1ccc(Cl)cc1)N1CCn2c1nc1ccccc12	i
CCc1ccccc1N(CC(=O)NC1CC2CCC1C2)S(=O)(=O)c1ccc(C)cc1 (stereo not drawn)	i
Cc1ccc(C2CC(=O)c3cnc(NCc4ccccc4)nc3C2)cc1 (stereo not drawn)	i
c1ccc2c(c1)OC1c3ccccc3OC3c4ccccc4OC2N31 (stereo not drawn)	i
O=C(CCC(=O)Nc1ccccc1Oc1ccccc1)Nc1ccccc1Oc1ccccc1	i
CCC(c1ccccc1)c1nc(-c2ccc(OC)c(OC)c2)no1 (stereo not drawn)	4%
CS(=O)(=O)N1CCN(c2ccc([N+](=O)[O-])c(N3CCN(c4ccccc4)CC3)c2)CC1	i

Arranged by count of non-hydrogen atoms (high to low): some entries from above
SMILES	Mtb growth
c1ccc2c(c1)OC1c3ccccc3OC3c4ccccc4OC2N31 (stereo not drawn)	i
CCC(c1ccccc1)c1nc(-c2ccc(OC)c(OC)c2)no1 (stereo not drawn)	4%
O=S(=O)(c1ccc(Cl)cc1)N1CCn2c1nc1ccccc12	i

Next section
SMILES	Mtb growth
O=C1CC(c2cc(Br)ccc2F)c2cc3c(cc2N1)OCCO3 (stereo not drawn)	5%
Cc1ccc(C(=O)N/C(=C/c2cccnc2)c2nc3ccccc3[nH]2)cc1	13%
Cc1ccc(N(CC(=O)Nc2cccnc2)S(=O)(=O)c2ccccc2)cc1	i
CCC(=O)NC(=S)Nc1ccc(NC(=S)NC(=O)c2ccc(C)cc2)cc1	i
CCC(Oc1ccccc1)C(=O)O/N=C(\N)c1ccc(C)cc1 (stereo not drawn)	i
O=C1CN(C(=O)CN2CCCC2)C(c2ccccc2)c2cc(Br)ccc2N1 (stereo not drawn)	i
Cc1cc(Cl)ccc1OC(C)C(=O)Nc1nc(C)c(C)s1 (stereo not drawn)	i
COC(=O)CSc1c(-c2ccccc2)c2cc(Cl)ccc2[nH]c1=O	6%
COc1ccc(NC(=O)Nc2cnn(Cc3ccc(Cl)cc3)c2)cc1	i
S=C(Nc1ccc2c(c1)OCO2)Nc1cc(Cl)c(Cl)cc1Cl	i
COc1ccc(OC)c(N(CC(=O)Nc2ccc(Cl)c(Cl)c2)S(=O)(=O)c2ccccc2)c1	i
CCc1ccc(CNC(=O)C(=O)NC)cc1	i
O=C(O)c1cn(Cc2ccccc2F)c2ccccc12	i
NC(=O)c1cn(-c2ccccc2)nc1-c1cccc(Cl)c1	i
O=C(Nc1ccccc1C1=NCCc2ccccc21)C1CCCCC1	i
CCOc1cc(C(=O)Oc2ccc(C(C)=O)cc2)cc(OCC)c1OCC	i
COc1ccccc1N(CC(O)CN1C(C)CCCC1C)S(=O)(=O)c1ccccc1 (stereo not drawn)	4%
O=C1CCCc2c1[nH]c1ccc(OCc3ccccc3)cc21	i
CN(C)S(=O)(=O)N(CC(=O)N1CCOCC1)c1ccccc1	i
CCc1ccccc1OCC(=O)NCC(C)C	i
O=C(C1=C(O)C(=O)N(Cc2ccco2)C1c1cccc(O)c1)c1ccco1 (stereo not drawn)	i
COc1cccc(NC(=O)CSCc2n[nH]c(=O)[nH]2)c1	i
Cc1cccc(C(=O)Nc2ccc3nc(SCC(=O)Nc4ccccc4C)sc3c2)c1	46%
CC(NS(=O)(=O)c1ccc(Cl)cc1)C(=O)Nc1ccc(Oc2ccccc2)cc1 (stereo not drawn)	3%
CCC(C(=O)Nc1cccc2c1CCCC2)c1ccccc1 (stereo not drawn)	4%
CCOC(=O)C1=C(C)N(C)C(=O)NC1c1cc([N+](=O)[O-])ccc1OCC (stereo not drawn)	i

Single values from the results shown.
Mtb growth result of Cc1c(NC(=O)c2cccc(S(=O)(=O)N3CCCC3)c2)c(=O)n(-c2ccccc2)n1C stands at 2%
Mtb growth result of Cc1cc(C(F)F)n2nc(C(=O)Nc3ccc(S(=O)(=O)NC45CC6CC(CC(C6)C4)C5)cc3)nc2n1 stands at 3%
